Assay outcomes: PubChem, several laboratories
A1 inh: caspase 3/7 activation in MEF A1-2A-BIM cells, primary screen, A1 inhibitor project, cell-based, luminescence, HTS | Caspase-Glo 3/7 luminescence, 3 h; percent of clofoctol response, vehicle zero | caspase activation, % (test concentration not listed) | 330,000 compounds, 0.066% hits;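 active means over half of replicate activation scores above 10%, or exactly half above 10 with the replicate mean above 10; inconclusive means replicate mean below 10 yet half the replicates above 10; inactive means over half of replicates below 10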;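 further: wells of about 30 µL received 50 nL stock; many hits fall short of the cut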
T cruzi repl: inhibitors of intracellular T. cruzi growth, primary screen, luminescence, NIH3T3 host cells; 300,000 compounds, 1.4% hits; T. cruzi beta-gal in NIH3T3, 90 h; AID 1885, 2009; inhibition, % (no concentration beside the values);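 active means mean inhibition across valid replicates above about 55%, limit read from the data; inconclusive means mean below that limit but half or more replicates reach it; inactive means mean below it, under half of replicates reach it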;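 further: signal also drops with host cell toxicity which is not excluded here; 0% = plate median of DMSO wells and 100% = zero luminescence signal; higher percent means less beta-gal luminescence so fewer parasites; stock transfer was 50 nL into about 50 µL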
Beta apoptosis: inhibitors of cytokine-induced beta cell apoptosis, primary screen, luminescence. 300,000 compounds, 0.8% hits. AID 435005, 2010. protection from apoptosis, % (test concentration not listed). INS-1E cytokine-induced death, ATP luminescence, 48 h; percent of positive-control rescue, neutral wells zero;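 active means all replicates at 75% or more, or half of them and the mean; inconclusive means half reach 75% but not the mean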;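 further: 0% = cytokine-treated negative control wells and 100% = positive control rescue; higher means more ATP so stronger rescue from cytokine killing; wells of about 40 µL received 100 nL stock; the first replicate is given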
rRNA inh HTS: reduced GFP signal of wild-type E. coli, primary screen, bacterial rRNA inhibitor project, GFP/RFP fluorescence, OD600, single point. E. coli WT GFP vs humanized-ribosome RFP mutants, 24 h; hits give low values; DMSO median 0, no signal -100. 350,000 compounds, 1.6% hits. GFP signal change (wild-type ribosome), % (test concentration not listed). AID 720706, 2013;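 active means significant combined selectivity score with lowered wild-type GFP, culture density cut under 30%, mutant RFP and density less affected; inactive means any of these conditions unmet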; further: one replicate is shown; some compounds called inactive have numbers as strong as hits
ALR H2O2 inh: inhibitors of human ALR sulfhydryl oxidase, primary screen, biochemical, H2O2 detection, HRP-luminol luminescence, single point | FAD-linked sulfhydryl oxidase ALR (Homo sapiens), P55789 | inhibition, % (no concentration beside the values) | 290,000 compounds, 3.8% hits | purified ALR, DTT oxidation;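 active means mean and each replicate at 75% or more; inconclusive means only one of the two met; inactive means neither met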;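 further: stock transfer was 7.5 nL into about 7.5 µL; 0% = neutral wells and 100% = wells with inactivated enzyme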
Target sequence (P55789 whole entry, looked up): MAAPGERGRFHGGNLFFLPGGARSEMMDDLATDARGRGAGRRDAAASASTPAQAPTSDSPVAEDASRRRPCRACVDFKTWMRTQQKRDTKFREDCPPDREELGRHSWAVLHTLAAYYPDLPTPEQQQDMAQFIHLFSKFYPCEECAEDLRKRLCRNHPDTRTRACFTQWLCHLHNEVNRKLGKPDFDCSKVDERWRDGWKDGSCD
LANA-H2A inh: blockers of LANA interaction with H2A/H2B – biochemical, FP readout, HTS, primary screen | cell-free LANA-H2A/H2B peptide, fluorescence polarization | inhibition, % (test concentration not listed) | 320,000 compounds, 0.6% hits; in the data active means inhibition mostly above about 10%, no sharp cut-off; inactive means mostly below about 6.7%;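 further: stock transfer was 7.5 nL into about 10 µL; 0% = median of vehicle wells and 100% = median of positive control wells; one replicate is shown; the record names a cut of 25% in any replicate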
Beta2AR agonist: beta2AR agonists driving receptor internalization, primary screen, cell-based, FAP fluorogen, flow cytometry. Beta-2 adrenergic receptor (Homo sapiens), P07550. response, % (concentration not given with the values). Am2.2-beta2AR cells; reference of the scale not given here. 340,000 compounds, 0.43% hits;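 active means response above a set limit, near 3 SD of response in nonfluorescent compounds, cut at about 42% in these data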;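 further: stock transfer was 100 nL into about 11 µL; a reference agonist was the positive control; negative values mostly stem from fluorescent compounds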
Target sequence (P07550 whole entry, looked up): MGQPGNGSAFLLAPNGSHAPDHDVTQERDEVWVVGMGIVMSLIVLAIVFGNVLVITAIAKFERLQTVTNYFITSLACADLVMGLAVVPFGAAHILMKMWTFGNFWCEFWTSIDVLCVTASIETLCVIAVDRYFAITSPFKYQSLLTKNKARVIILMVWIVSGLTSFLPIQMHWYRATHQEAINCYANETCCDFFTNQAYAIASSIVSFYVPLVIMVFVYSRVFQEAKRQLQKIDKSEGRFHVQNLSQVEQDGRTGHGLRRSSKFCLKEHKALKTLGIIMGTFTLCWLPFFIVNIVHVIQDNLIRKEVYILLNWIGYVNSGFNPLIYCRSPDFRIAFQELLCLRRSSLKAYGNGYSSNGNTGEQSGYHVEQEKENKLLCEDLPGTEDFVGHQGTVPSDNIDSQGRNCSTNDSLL
Calb FLC: C. albicans growth inhibition with fluconazole, primary screen, CaCi-2 strain, Alamar Blue fluorescence | C. albicans CaCi-2 (fluconazole-resistant clinical isolate) + fluconazole, 48 h | growth inhibition, % (no concentration beside the values) | 300,000 compounds, 0.57% hits | AID 1979, 2009;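 active means most replicates above 75%; inconclusive means exactly half above 75%; inactive means most below 75%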;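 further: all wells also contain fluconazole at 8 µg/ml as a sub-toxic cotreatment; 0% = median of DMSO wells and 100% = median of geldanamycin control wells; wells of about 8 µL received 7.5 nL stock; the first replicate is given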
rRNA inh HTS OD600: also measured in rRNA inh HTS; calls as there; OD600 change, %; measured here: OD600 growth;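 optical density of the mix in the first replicate; 0 = DMSO median and -100 = no signal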
rRNA inh HTS RFP: second read-out of rRNA inh HTS, no call of its own (marks repeat the call); RFP signal change, %; measured here: RFP humanized mutant strains;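 first replicate; 0 = DMSO median and -100 = no signal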
An asterisk follows results filed as active; u = inconclusive; x = not tested or not shown; & = joins results of further samples.

Compound	rRNA inh HTS RFP	ALR H2O2 inh	LANA-H2A inh	Beta apoptosis	rRNA inh HTS	rRNA inh HTS OD600	A1 inh	Calb FLC	Beta2AR agonist	T cruzi repl
C/C=C1\COC(C(=O)NCc2ccccc2)(C(F)(F)F)C=C1C=C1CCCCC1 (centres undefined)	-0.4	5	-2.6	0	3	1	0.9	-2	4	17
Oc1ccc(-c2[nH]ncc2-c2ccc(Br)cc2)c(O)c1	-22	66	0.9	3	-67	-78	-0.4	7	6	-9
COC(=O)CSc1nnc(NC(=O)/C=C\c2ccc3c(c2)OCO3)s1	x	21	8.1	-5	x	x	-0.1	17	2	-9
COc1ccccc1OCc1nnc(SCC(=O)Nc2ccc(N3CCOCC3)cc2)n1C	-3.8	44	-0.6	1	-3	-2	u	-15	4	-3
O=C(NN1C(=O)/C(=C/C=C/c2ccco2)SC1=S)c1ccncc1	12	22	-2.5	-3	-3	0	-0.2	1	4	6
CCOc1ccc(C(=O)Nc2cnn(Cc3ccc(Cl)c(Cl)c3)c2)cc1	2.9	2	-1.0	1	0	6	1.3	-13	-20	48
CN(C)S(=O)(=O)c1cccc(C(=O)Nc2ccccc2[N+](=O)[O-])c1	2.4	-3	-1.8	-4	-1	4	0.4	5	-8	-3
Cc1onc(-c2ccccc2)c1C(=O)OCC(=O)N1CCC(C)CC1	-0.3	4	14	-22	1	0	-0.8	x	1	x
CC(C)(C)c1ccc(C2SCC(=O)N2c2cccc(C(=O)O)c2)cc1 (centres undefined)	-4.7	x	-3.2	x	-2	-15	0.1	3	-4	3
C=CCNC(=O)c1ccc(CNS(=O)(=O)c2ccc(NC(C)=O)cc2)cc1	0.5	-10	-0.9	-12	0	4	0.0	6	-2	-25
COc1cc(C(=O)/C=C/c2cccnc2)ccc1O	-0.1	100*	-3.2	x	12	8	0.0	61	22	-24
O=C(NC12CC3CC(CC(C3)C1)C2)N1CCC(n2nnc3ccccc32)CC1	x	x	0.5	3	x	x	0.3	1	-3	-10
COC(=O)c1ccnc(SCC(=O)c2ccccc2)c1	1.7	-4	0.8	-3	3	-12	-5.7	2	0	-10
O=C(c1ccco1)N(CCCN1CCOCC1)c1nc(-c2ccc(Cl)cc2)cs1	x	-15	-6.6	7	x	x	0.1	6	-11	67*
Cc1cc(C)n2nc(SCC(=O)NC(=O)c3ccccc3)nc2n1	2.8	-14	3.6	-4	14	13	u	x	4	x
Cc1ccccc1C(=O)OC1OC(=O)C(Cl)=C1Nc1ccc(C(=O)O)cc1 (centres undefined)	-4.4	6	1.9	-6	-1	-11	-0.4	-7	-10	-5
COc1ccc(NC2CCCN(C(=O)CCN3Cc4ccccc4C3=O)C2)cc1 (centres undefined)	1.7	99*	21*	-1	4	10	0.4	-1	-7	11
C[C@H](CO)N1C[C@H](C)[C@@H](CN(C)S(=O)(=O)c2ccccc2)Oc2ccc(NC(=O)CCN3CCOCC3)cc2C1=O	0.7&8.4	-1	-4.0	-3	1&10	11&0	-0.1	x	-6	x
Cc1ccc(S(=O)(=O)NC(CCc2ccccc2)CC(=O)C(C)(C)C)cc1 (centres undefined)	x	-8	5.1	17	x	x	-1.6	x	x	x
CCOc1ccccc1NC(=O)Cn1c(=O)n(CCC(=O)NC2CCCC2)c(=O)c2ccccc21	x	2	31*	x	x	x	0.3	4	-6	1
O=C(NN1C(=O)c2ccccc2NC1c1ccc([N+](=O)[O-])o1)c1ccccc1 (centres undefined)	1.6	-26	-2.9	-17	22	10	-0.6	31	2	42
COc1ccc(-c2ccc([C@H]3[C@H]4C=CC[C@@H](C)[C@@H]4C(=O)N3Cc3ccccc3)c(F)c2)cc1OC	-11	-9	-3.6	11	5	-7	0.0	4	-11	41
Cn1c(=O)c2[nH]c(Nc3ccccc3)nc2n(C)c1=O	x	89*	-1.3	-14	x	x	-0.6	2	-3	19
CCc1nc(SCC(=O)N2c3ccccc3Sc3ccccc32)c2ccccc2n1	x	-10	-4.9	x	x	x	-0.4	-2	-1	43
COc1ccccc1N1CCN(C(=O)C(=O)c2c(C)n(C)c3ccccc23)CC1	1.7	7	2.7	-5	0	-12	1.1	-1	-1	11
FC(F)Oc1ccc(NC(=S)NC2CCSc3ccccc32)cc1 (centres undefined)	-14	-7	-1.2	-4	-57	-77	-1.6	-2	6	14
O=C(CN1CCOCC1)Nc1cccc(S(=O)(=O)N2CCCCCC2)c1	-1.2	-5	-371	-2	2	1	0.6	-5	1	-2
O=C(C1=C[C@H](c2ccc(Br)cc2)C[C@H](OCc2ccc(CO)cc2)O1)N1CCN(Cc2ccc3c(c2)OCO3)CC1	0.0	1	-5.0	7	4	2	0.2	9	-2	48
C#CCN(C(=O)c1cc(COc2ccc(C)c(C)c2)on1)C1CCCCC1	-5.9	5	-11	x	-30	-24	0.8	-12	-3	20
Cc1ccc(NC(=O)CN(c2ccc3c(c2)OCO3)S(=O)(=O)c2c(C)n[nH]c2C)cc1	-8.1	90*	3.5	x	-2	0	0.2	1	0	-10

3 entries drawn at random from the list so far, as already listed:
Compound	rRNA inh HTS RFP	ALR H2O2 inh	LANA-H2A inh	Beta apoptosis	rRNA inh HTS	rRNA inh HTS OD600	A1 inh	Calb FLC	Beta2AR agonist	T cruzi repl
COC(=O)CSc1nnc(NC(=O)/C=C\c2ccc3c(c2)OCO3)s1	x	21	8.1	-5	x	x	-0.1	17	2	-9
COc1ccc(-c2ccc([C@H]3[C@H]4C=CC[C@@H](C)[C@@H]4C(=O)N3Cc3ccccc3)c(F)c2)cc1OC	-11	-9	-3.6	11	5	-7	0.0	4	-11	41
CCOc1ccc(C(=O)Nc2cnn(Cc3ccc(Cl)c(Cl)c3)c2)cc1	2.9	2	-1.0	1	0	6	1.3	-13	-20	48

The listing continues:
Compound	rRNA inh HTS RFP	ALR H2O2 inh	LANA-H2A inh	Beta apoptosis	rRNA inh HTS	rRNA inh HTS OD600	A1 inh	Calb FLC	Beta2AR agonist	T cruzi repl
COc1ccc(-c2nnn(Cc3nc(N)nc(N4CCCCC4)n3)n2)cc1	x	18	-41	-5	x	x	-1.0	-9	-14	-2
C=CCSc1nc(N)c(C#N)c(-c2ccccc2)c1C#N	x	-5	2.4	0	x	x	-0.9	15	3	21
Cc1cc(NC(=O)CSCC(=O)N(C)Cc2c(F)cccc2Cl)no1	0.1	-6	-0.6	-7	6	2	-0.5	-1	12	2
O=C(N=C1SC2CS(=O)(=O)CC2N1c1cc(Cl)ccc1Cl)C1CCCO1 (centres undefined)	-1.3	-2	-6.3	2	14	12	1.0	x	5	-3
COc1ccc(C(=O)N2CCCC(CCC(=O)NCc3ccc(F)c(F)c3)C2)cc1F (centres undefined)	-3.4	-8	1.0	7	-26	-22	-0.7	2	-7	4
O=C(O)Cc1ccc2c(c1)N(S(=O)(=O)c1cccs1)CC(C(=O)O)O2 (centres undefined)	-3.6	2	-0.7	2	17	13	-1.2	2	2	2
CCn1c2ccccc2c2nnc(SCC(=O)Nc3c(C)n(C)n(-c4ccccc4)c3=O)nc21	x	35	-1.0	-9	x	x	-0.3	-6	-14	9
O=C(Cc1ccccc1)Nc1nc2ccccc2s1	x	1	8.3	-1	x	x	0.6	-29	-3	-18
NC(=O)CN1N=C(c2cc(Cl)sc2Cl)CSC1=O	x	-1	-2.1	3	x	x	1.0	-16	1	-17
O=C1CCCCC1C(O)c1ccc(Cl)cc1 (centres undefined)	x	-1	-2.4	-7	x	x	1.5	8	x	-11
O=C1/C(=C/c2cccs2)SC(=S)N1C1CCS(=O)(=O)C1 (centres undefined)	29	-7	-0.1	-4	-4	-9	0.3	18	-12	6
CCN(CC)S(=O)(=O)c1cccc(NC(=O)COC(=O)C2=COCCO2)c1	0.5	-7	4.3	2	8	11	-0.3	x	-4	x
CCN1CCCC1CN=Cc1c(O)n(-c2ccccc2)c(=O)c2ccccc12 (centres undefined)	1.2	1	-1.8	7	11	11	0.1	-17	-8	44
COc1cccc(S(=O)(=O)Nc2noc3ccccc23)c1	6.9	-50	-9.3	-3	14	5	2.9	4	12	1
Cc1noc(C)c1CS(=O)(=O)c1ccc([N+](=O)[O-])cc1	0.1	4	-1.0	-14	18	15	1.0	0	0	46
CCOC(=O)C1CCN(C(=O)/C=C/c2ccccc2OC)CC1	x	-9	-3.1	3	x	x	-1.7	-4	12	-1
COc1ccc(OC)c(NC(=O)CCN2CCN(C/C=C/c3ccccc3)CC2)c1	9.2	-31	1.4	0	-5	-9	0.7	-7	0	26
O=CN1CCN(C(=O)Cc2ccc([N+](=O)[O-])cc2)CC1	-4.7	x	3.3	-16	10	1	0.2	6	-7	-6
Cc1ccccc1NS(=O)(=O)c1ccc(-c2ccc(=O)[nH]n2)o1	-2.6	-3	-0.6	-8	-2	-2	1.2	-14	3	-7
CC(=O)NS(=O)(=O)c1ccc(NC(=O)c2ccccn2)cc1	-0.7	-13	-6.0	-1	4	13	-0.2	-2	-5	-9
NC(=O)c1c(NC(=O)COC(=O)c2ccc(S(=O)(=O)Nc3ccccc3)cc2)sc2c1CCCC2	0.2	-3	5.4	-8	2	7	0.4	33	-1	-7
COc1cc(OC)cc(C(=O)N2CCC(C(=O)NCCc3ccccc3)CC2)c1	3.8	5	12	2	12	-13	0.8	11	3	8
CCOC(=O)c1c(-c2ccc(Cl)cc2)cn2ccccc12	x	-8	1.0	-2	x	x	0.4	3	4	12
CCc1nc2ccc(C(=O)Nc3cccc(C(C)=O)c3)cc2nc1CC	x	-5	-3.3	-2	x	x	-4.7	-6	12	5
Cc1c([N+](=O)[O-])c(C(=O)N2CCCC2)nn1C	-3.1	-7	-1.0	-9	12	12	0.3	0	-2	-18

Ordered by number of heavy atoms (rising): 3 of the compounds above
Compound	rRNA inh HTS RFP	ALR H2O2 inh	LANA-H2A inh	Beta apoptosis	rRNA inh HTS	rRNA inh HTS OD600	A1 inh	Calb FLC	Beta2AR agonist	T cruzi repl
O=C1/C(=C/c2cccs2)SC(=S)N1C1CCS(=O)(=O)C1 (centres undefined)	29	-7	-0.1	-4	-4	-9	0.3	18	-12	6
COc1ccc(-c2nnn(Cc3nc(N)nc(N4CCCCC4)n3)n2)cc1	x	18	-41	-5	x	x	-1.0	-9	-14	-2
NC(=O)c1c(NC(=O)COC(=O)c2ccc(S(=O)(=O)Nc3ccccc3)cc2)sc2c1CCCC2	0.2	-3	5.4	-8	2	7	0.4	33	-1	-7

Not all compounds are listed, so the mix of outcomes need not match the whole.
